# FGF22 binding – binders of recombinant human FGF22 by thermal shift; calls only at 9.99 µM; 1.5% of 340,000 active; Q9HCT0; SYPRO orange fluorescence; percent of sucrose octasulfate shift, DMSO zero;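 active means melting point raised past a set limit in the mean and every replicate; three in four hits are not shown here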
# Target sequence (Q9HCT0 whole entry, looked up): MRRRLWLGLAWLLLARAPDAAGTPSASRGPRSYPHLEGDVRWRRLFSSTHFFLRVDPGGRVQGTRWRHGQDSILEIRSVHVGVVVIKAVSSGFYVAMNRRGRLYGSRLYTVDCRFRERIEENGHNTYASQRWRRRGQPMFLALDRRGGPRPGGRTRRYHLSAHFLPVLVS
# rRNA inh HTS – selective bacterial rRNA inhibition in E. coli. E. coli WT GFP vs humanized-ribosome RFP mutants, fluorescence, 24 h; stronger effect = lower value; DMSO median 0, no signal -100. 1.6% of 350,000 active. GFP signal change (wild-type ribosome), % (concentration not given with the values). AID 720706;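 active means significant combined selectivity score with lowered wild-type GFP, culture density cut under 30%, mutant RFP and density less affected; inactive means any of these conditions unmet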; further: one replicate is shown; some compounds called inactive have numbers as strong as hits
# Beta2AR agonist – human beta-2 adrenergic receptor agonism by FAP; response, % (test concentration not listed); Am2.2-beta2AR cells, FAP receptor internalization, flow cytometry; reference of the scale not given here; P07550; 0.43% of 340,000 active;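 active means response above a set limit, near 3 SD of response in nonfluorescent compounds, cut at about 42% in these data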;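 further: stock transfer was 100 nL into about 11 µL; a reference agonist was the positive control; negative values mostly stem from fluorescent compounds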
# Target sequence (P07550 whole entry, looked up): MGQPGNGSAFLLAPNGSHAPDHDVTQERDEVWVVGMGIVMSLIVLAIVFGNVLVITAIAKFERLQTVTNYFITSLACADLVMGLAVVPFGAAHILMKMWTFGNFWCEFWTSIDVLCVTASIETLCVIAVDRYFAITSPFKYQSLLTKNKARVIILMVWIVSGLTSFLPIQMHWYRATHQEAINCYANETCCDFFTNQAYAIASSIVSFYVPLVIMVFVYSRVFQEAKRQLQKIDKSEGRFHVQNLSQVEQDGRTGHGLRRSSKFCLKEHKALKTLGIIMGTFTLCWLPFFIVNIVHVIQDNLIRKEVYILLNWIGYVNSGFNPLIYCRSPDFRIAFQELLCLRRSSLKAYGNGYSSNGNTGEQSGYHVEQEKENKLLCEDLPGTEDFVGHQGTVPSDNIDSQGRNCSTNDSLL
# ALR inh – human ALR oxidase inhibition via reduced H2O2 | P55789 | purified ALR, DTT oxidation, H2O2 HRP-luminol luminescence | inhibition, % (concentration not given with the values) | 3.8% of 290,000 active;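 active means mean and each replicate at 75% or more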;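 further: stock transfer was 7.5 nL into about 7.5 µL; 0% = neutral wells and 100% = wells with inactivated enzyme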
# Target sequence (P55789 whole entry, looked up): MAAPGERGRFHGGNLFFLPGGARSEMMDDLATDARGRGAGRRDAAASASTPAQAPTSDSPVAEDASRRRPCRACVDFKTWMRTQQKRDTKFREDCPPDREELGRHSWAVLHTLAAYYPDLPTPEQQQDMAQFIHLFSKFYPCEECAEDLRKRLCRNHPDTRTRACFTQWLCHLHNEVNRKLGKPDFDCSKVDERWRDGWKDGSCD
# HNF4A DNA FP – change in binding of human HNF4 alpha to DNA. P41235. HNF4a-FITC DNA binding, fluorescence polarization, 1 h. 0.3% of 360,000 active. activity change, % at 10 µM. AID 1224865; in the data active means activity change above about 30%, passing the limit was not always enough;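 further: controls were the assay level and a saturating level of protein; the project sought stronger binding though the title names inhibitors; some compounds called inactive have numbers as strong as hits; positive values seem to mean higher polarization but the record does not say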
# E coli growth – E. coli growth inhibition | OD600 absorbance (concentration not given with the values) | 0.21% of 330,000 active | Escherichia coli growth, OD600, 23 h; stronger effect = lower value;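 active means OD600 absorbance below the run mean of sample wells minus 3.6 SD, in any replicate, cut at about 0.56 in these data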;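 further: stock transfer was 300 nL into about 60 µL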
# UCH37 DUB inh – blocks the human deubiquitinase UCH37; purified proteasome/UCH37, Ub-AMC cleavage fluorescence; inhibition, % (no concentration beside the values); 0.33% of 330,000 active; AID 588478;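 active means mean of two replicates above 20%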;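 further: 0% = compound-free wells with enzyme and 100% = wells lacking proteasome; stock transfer was 100 nL into about 20 µL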
#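 Material: human UCH37 enzyme supplied as purified proteasome complex / Amount: 0.15 nM proteasome as dispensed / Buffer or medium: pH 7.4 Tris-HCl (50 mM) with ovalbumin, ATP-MgCl2, DTT / Times: preincubation 30 min, reaction 25 min, room temperature / Technique: AMC fluorescence from Ub-AMC cleavage, excitation 355 nm, emission 460 nm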
# rRNA inh HTS OD600 – second read-out of rRNA inh HTS, no call of its own (marks repeat the call); OD600 change, %; measured here: OD600 growth;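 optical density of the mix in the first replicate; 0 = DMSO median and -100 = no signal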
# rRNA inh HTS RFP – recorded beside rRNA inh HTS, whose call it bears; RFP signal change, %; measured here: RFP humanized mutant strains;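 first replicate; 0 = DMSO median and -100 = no signal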
# * = called active by the depositor; i = inactive; · = no result given; + = active, no number; & = joins results of further samples.
SMILES,FGF22 binding,rRNA inh HTS,rRNA inh HTS OD600,rRNA inh HTS RFP,Beta2AR agonist,ALR inh,HNF4A DNA FP,E coli growth,UCH37 DUB inh
COc1ccc(C2/C(=C(/O)c3ccccc3)C(=O)C(=O)N2CCO)cc1 (stereo not drawn),·,·,·,·,10,3,-3.1,0.76,-2.0
CC(CCc1ccccc1)NC(=O)CCC(=O)N1CCC(C(N)=O)CC1 (stereo not drawn),i,8,2,-1.3,-1,-22,-2.4,0.67,2.0
Nc1c(-c2ccsc2)cnc2ncnn12,i,13,-1,-3.0,-2,-16,1.9,·,·
C[C@@H]1CN([C@H](C)CO)C(=O)CCCn2nncc2CO[C@H]1CN(C)Cc1ccc(C(F)(F)F)cc1,i,15&-6,3&-10,4.3&2.9,·,·,-1.3,·,·
O=C(O)CCC(=O)NCc1ccc(F)cc1,·,·,·,·,-1,-6,4.1,0.65,-0.5
C=CCn1c(SCC(=O)O)nnc1-c1ccccc1,·,·,·,·,0,-7,-1.1,0.68,5.7
O=C1C(Cc2ccc(Br)cc2)SC(=Nc2ccccc2)N1c1ccccc1 (stereo not drawn),i,·,·,·,6,-15,-5.6,0.77,1.9
CCOC(=O)C1=C(CSc2nc3ccccc3s2)NC(=O)NC1c1ccc(OC)cc1 (stereo not drawn),·,·,·,·,2,-127,5.2,0.67,2.0
CCCCC(=O)N1CC2(C)CN(C(=O)CCCC)CC(C)(C1)C2=O,·,·,·,·,0,-6,2.1,0.7,2.0
COC(=O)c1ccccc1NC(=O)C1CCN(C(=O)c2cc(OC)cc(OC)c2)CC1,·,·,·,·,0,-8,5.3,0.74,-1.5
O=S(=O)(c1ccc2nc(-c3ccccc3)[nH]c2c1)N1CCN(c2ccc(Cl)cc2)CC1,·,·,·,·,-6,-8,1.0,0.72,2.2
CC(=O)c1ccc(O)c(CSc2nncn2C)c1,·,3,8,-2.8,5,-8,-1.5,0.7,3.7
CC(O)CNc1nc2c(c(=O)n(Cc3ccc(Cl)c(Cl)c3)c(=O)n2C)n1C (stereo not drawn),i,1,8,2.8,6,0,-1.4,0.59,4.3
O=C(NCCNC(=O)c1ccco1)c1ccc(F)cc1,i,-1,3,-1.2,2,-6,3.4,0.68,2.4
CCc1ccc(N2C(=O)c3ccc4c5c(ccc(c35)C2=O)CC4)cc1,·,·,·,·,0,-4,-2.1,0.72,-88
Cn1c(N)c(C(=O)CSc2ccc3c(c2)OCCO3)c(=O)n(C)c1=O,·,·,·,·,0,34,0.1,0.67,1.1
COc1ccc(C(=O)N/C(=C\c2ccc(Cl)cc2)C(=O)NCCN2CCOCC2)cc1,i,12,18,-1.3,·,·,-3.5,·,·
O=C(NN1C(=O)c2ccccc2NC1c1ccoc1)c1ccccc1 (stereo not drawn),i,19,13,-0.5,-4,-1,-0.3,0.7,-65
CCN(CC)c1ncnc2c1cnn2Cc1ccc(C)cc1,i,-6,-3,3.0,20,·,0.4,0.7,3.3
CC(=O)Nc1ccc(-c2csc(NC(=O)CC(NC(C)=O)c3ccccc3)n2)cc1 (stereo not drawn),i,-5,6,-3.9,23,-2,4.9,0.61,-5.1
CCCC(=O)N(Cc1cc2cccc(C)c2[nH]c1=O)c1ccccc1OC,·,-1,8,1.3,-2,-1,1.5,0.66,-3.3
O=C(Nc1ccccc1)OCCNC(=O)c1ccccc1,·,·,·,·,-4,-6,-0.1,0.67,6.5
Cc1cc(C)nc(NS(=O)(=O)c2ccc(NC(=S)NC(=O)c3cccnc3)cc2)n1,i,14,-1,3.1,8,30,3.5,0.67,8.6
Cc1ccc(C2=Nc3ccccc3N(C(=O)c3ccccc3)C(C)C2)cc1 (stereo not drawn),·,·,·,·,0,-20,-2.3,0.68,-0.4
CC1(C)CC(=O)C2=C(C1)N=C1SCCC(=O)N1C2c1cccc([N+](=O)[O-])c1 (stereo not drawn),i,8,1,-0.6,-1,1,-2.3,0.66,4.3
# (more compounds)
SMILES,FGF22 binding,rRNA inh HTS,rRNA inh HTS OD600,rRNA inh HTS RFP,Beta2AR agonist,ALR inh,HNF4A DNA FP,E coli growth,UCH37 DUB inh
O=C(Cn1nc(-c2ccc(F)cc2)ccc1=O)Nc1ccc(C(=O)NC2CC2)cc1,·,·,·,·,-3,-4,-1.5,0.63,0.1
COc1cccc(N/C=C/C(=O)c2ccc(Cl)cc2)c1,i,4,6,22,3,-2,2.3,0.66,-6.4
CCn1c(CNC(=O)c2cccc(C)c2)nnc1SCC(=O)NC1CCCC1,i,3,-3,-0.2,5,-3,-3.2,0.66,2.4
Cn1nnc(C(O)CNCc2cccs2)n1 (stereo not drawn),·,·,·,·,6,-3,-2.7,0.71,5.5
CCOC(=O)CN(C(=O)CSc1nnc(-c2ccncc2)n1CCCN(C)C)c1ccccc1,·,·,·,·,4,5,-0.1,0.68,5.5
CS(=O)(=O)Nc1ccc(C(=O)NCCSCc2c(F)cccc2Cl)cc1,·,-25,-30,-6.7,-5,-10,3.2,0.69,7.4
COc1ccccc1NC(=O)N(C)C[C@@H]1OCc2cnnn2CCCC(=O)N([C@@H](C)CO)C[C@@H]1C,i,7&0,7&6,1.0&0.9,·,·,2.3,·,·
Cc1ccc(CN(C(=O)c2ccco2)C(C(=O)NC2CCCC2)c2ccc(N3CCOCC3)cc2)cc1 (stereo not drawn),·,·,·,·,1,·,-6.5,0.68,-0.3
COC(=O)c1ccc(NCN2C(=O)C3C4CCC(C4)C3C2=O)cc1 (stereo not drawn),i,-2,3,-3.1,2,-4,-2.7,0.66,3.2
CCCCN1C[C@H](C)[C@@H](CC(=O)NCc2ccccc2)C1=O,i,9,4,-8.0,-2,·,1.8,·,3.8
CCCOc1cccc(-c2cc(C(=O)NNC(=S)NCC)c3ccccc3n2)c1,·,·,·,·,-8,9,-3.6,0.65,4.9
COc1cccc(C(=O)Nc2ccc3[nH]ncc3c2)c1,i,-2,0,-4.1,6,-39,0.5,0.62,0.9
COc1ccccc1NC(=O)c1c([N+](=O)[O-])cnn1C,i,6,9,-0.7,8,-30,1.7,0.66,0.9
N#Cc1ccc(NC(=O)c2cc(=O)c3ccccc3o2)cc1,i,19,12,2.1,1,-12,-0.5,0.7,3.3
Cc1nsc2c1ccc1ccccc12,i,4,1,-0.3,-8,0,1.3,0.7,1.8
Cc1onc(-c2ccccc2Cl)c1C(=O)N1CCC(Cc2ccccc2)CC1,i,-32,-59,10,-1,-6,-1.3,0.6,0.4
S=C(NCCc1ccccc1)Nc1ccc(Cl)cc1,+,-54,-77,-22,-16,0,-2.4,0.6,5.5
CCN1C(=O)c2ccccc2S(=O)c2ccc(C(=O)N3CCOCC3)cc21 (stereo not drawn),i,4,0,-3.2,-1,-10,-0.2,0.67,-4.1
CCN1C(=O)N(CC)C2NC(=S)NC21 (stereo not drawn),·,·,·,·,-10,·,-1.0,0.74,0.7
O=C(COc1cccc(Br)c1)N/N=C/c1ccc2c(c1)OCCO2,i,-2,-9,5.1,·,·,0.9,·,·
O=C(Nc1cccc([N+](=O)[O-])c1)c1ccncc1,·,·,·,·,-2,-9,-1.4,0.7,4.7
Nc1nc(SCC(=O)N2CCCc3ccccc32)[nH]c(=O)c1-c1ccccc1,i,1,8,-1.6,-6,·,1.9,0.66,3.7
CCOc1cccc(NCc2cc3c(C(C)(C)C)nn(-c4ccccc4)c3[nH]c2=O)c1,i,0,16,-2.6,4,-13,2.4,0.71,4.0
CC(C)C(=O)N1CCCC1(C)C(=O)Nc1ccc(-n2cccc2)cc1 (stereo not drawn),i,6,9,2.2,·,·,3.2,·,·
O=C(Nc1ccc(CN2CCOCC2)cc1)c1ccc(-c2ccc(Br)cc2)o1,i,-52,-73,-12,13,18,0.5,0.68,3.7

# Copied from the results shown for reference:
SMILES,FGF22 binding,rRNA inh HTS,rRNA inh HTS OD600,rRNA inh HTS RFP,Beta2AR agonist,ALR inh,HNF4A DNA FP,E coli growth,UCH37 DUB inh
O=C(COc1cccc(Br)c1)N/N=C/c1ccc2c(c1)OCCO2,i,-2,-9,5.1,·,·,0.9,·,·
O=C(Nc1cccc([N+](=O)[O-])c1)c1ccncc1,·,·,·,·,-2,-9,-1.4,0.7,4.7
Nc1nc(SCC(=O)N2CCCc3ccccc32)[nH]c(=O)c1-c1ccccc1,i,1,8,-1.6,-6,·,1.9,0.66,3.7
CCOc1cccc(NCc2cc3c(C(C)(C)C)nn(-c4ccccc4)c3[nH]c2=O)c1,i,0,16,-2.6,4,-13,2.4,0.71,4.0
CC(C)C(=O)N1CCCC1(C)C(=O)Nc1ccc(-n2cccc2)cc1 (stereo not drawn),i,6,9,2.2,·,·,3.2,·,·
O=C(Nc1ccc(CN2CCOCC2)cc1)c1ccc(-c2ccc(Br)cc2)o1,i,-52,-73,-12,13,18,0.5,0.68,3.7

# (more compounds)
SMILES,FGF22 binding,rRNA inh HTS,rRNA inh HTS OD600,rRNA inh HTS RFP,Beta2AR agonist,ALR inh,HNF4A DNA FP,E coli growth,UCH37 DUB inh
CC(C)(C)NC(=O)Nc1cccc(Cl)c1Cl,i,-1,-9,0.0,6,-1,-0.1,0.72,6.8
Fc1ccccc1C1CCN(Cc2nc(CC3CC3)no2)C1 (stereo not drawn),i,-18*,-8.8*,3.1*,2,-3,1.3,0.66,-0.2
CN(C)CCCN(C(=O)c1ccc(S(=O)(=O)N2CCCC2)cc1)c1nc2ccc(Br)cc2s1,i,-26,-6,16,18,-10,1.5,0.68,9.8
COc1ccc(C(=O)NCCc2nnc(SCc3nc4ccccc4c(=O)[nH]3)n2C)cc1,·,·,·,·,1,7,-0.9,0.78,0.0
N#CC1=C(S)N=C(N)C(c2nc(-c3ccccc3)cs2)C12CCCC2 (stereo not drawn),·,·,·,·,30,3,7.9,0.73,0.7
COc1ccc(-c2cc(-c3ccccc3)c(C#N)c(SCC(=O)Nc3ncc(C)s3)n2)cc1,·,·,·,·,9,-9,4.9,0.73,-159
CCOc1cc(C(=O)NC)cc(OCC)c1OCC,·,·,·,·,-1,-3,5.2,0.67,1.6
Cc1cc(C(F)(F)F)nc(SCC(=O)NC2=NC(=O)C(C)S2)n1 (stereo not drawn),·,·,·,·,-7,-4,-0.9,0.7,3.6
CCN(CC)CCn1c2ccc(Cl)cc2c2nc(C)sc21,i,-4,-2,-0.1,-17,-13,-4.2,0.67,7.5
CCn1c(COc2ccc(Cl)cc2)nnc1SCC(=O)Nc1ccc2c(c1)OCO2,·,·,·,·,-7,-19,-2.9,0.74,2.5
CN(Cc1ccc(C(C)(C)C)cc1)C(=O)Cc1ccc(S(=O)(=O)N2CCOCC2)s1,i,-20,-51,27,-2,·,7.5,0.67,4.1
Cc1cc(/C=N/n2cnnc2)c(C)n1-c1ccc(OCc2ccc(F)cc2)cc1,·,·,·,·,0,-7,0.5,·,·
COc1ccc(-n2c(-c3ccc(Cl)cc3)c[nH]c2=S)cc1,i,3,7,3.7,-3,40,-2.4,0.67,1.9
COc1ccc2nc(C)cc(SCC(=O)O)c2c1,·,11,1,-0.8,3&5,0&1,1.9&0.0,0.68&0.73,-2.9&-2.5
CCCCCCC(=O)Nc1ccc(C(=O)N2CCCC2)cc1,·,·,·,·,2,-5,-3.8,0.63,2.9
COc1ccccc1Oc1ccc(N/C=C2/CCCC2=O)cc1,·,·,·,·,4,18,0.2,0.7,3.6
Cc1ccc(CCNC(=O)C2CCC(=O)N(Cc3ccccc3F)C2)o1 (stereo not drawn),i,8,16,0.3,2,10,-2.9,0.71,1.3
COc1cccc(NC(=O)Cc2nnc(SCC(=O)NC(C)c3ccccc3)n2C)c1 (stereo not drawn),·,·,·,·,0,-5,0.1,0.72,1.0
Clc1cc(Cl)cc(CN2CCSCC2)c1,i,7,7,2.8,-2,0,1.8,0.63,0.2

# The list is partial; the hit share may differ from the screen's.
